gsp antagonist: antagonists of gsp mutant (McCune-Albright syndrome); 340,000 tested, 0.4% active; Potency, µM (series often up to 76.9 µM), for inactives: at the highest dose activity change, negative = inhibition, hits mostly inhibitors; gsp-mutant cells, cAMP HTRF, 30 min; control for the full effect not named in the record; AID 624288; active = falling curve of any shape with a large fitted effect; inconclusive = falling curve, mostly with a smaller effect; inactive = flat or rising curve; cell line not stated here;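 note: intracellular cAMP measured with PDE inhibitor Ro 20-1724 present during compound exposure; potency is the fitted concentration of half-maximal effect; % is set by controls: 0 for no effect and ±100 for the full control effect; nearly all actives have a fitted effect of over 65% in size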
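Measurement of cellular cAMP by homogeneous time-resolved fluorescence following a 30 min compound exposure at 37C. The PDE inhibitor […] was present throughout; the assay buffer was DPBS with 0.05% BSA and 0.005% Tween 20.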
Menin-MLL FL inh: displaces fluorescein MLL peptide from human menin | Fluorescence polarization, fluorescein-MLL peptide displacement from menin | FP activity change, % at 61.4 µM | 290,000 tested, under 10 active | AID 1766; inconclusive = falling polarisation curve, or a change in total fluorescence; inactive = total fluorescence flat and polarisation flat or rising; no compound was filed as active; the % refers to the polarisation; negative = inhibition;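 note: % of control where 0% means no effect; inhibitors lower the polarisation; unlabelled MLL peptide was the positive control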
gsp agonist: activates gsp, the McCune-Albright syndrome mutation; gsp mutant cells, cAMP HTRF, 30 min; control for the full effect not named in the record; Potency, µM (series often up to 76.9 µM), inactives show at the top dose activation (cAMP increase), most hits filed as activators; 340,000 tested, 0.13% active; AID 624287; active = well fitted activation curve with a large enough effect; inconclusive = small, poorly fitted or top-dose-only effect, or another doubt; inactive = no such curve, though single readings can be large or run the other way; cell line not stated here;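 note: phosphodiesterase inhibitor Ro 20-1724 added with compounds to block cAMP breakdown; potency is the fitted concentration of half-maximal effect; nearly all actives have a fitted effect of over 60% in size; about a fifth of the inactives were tested at one dose only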
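Cells in DMEM/10% FBS with G418 were pretreated with compounds in DMSO plus […] (300 uM stock) for 30 min at 37C. cAMP was measured by HTRF (cAMP-d2 plus anti-cAMP antibody-K) after 30 min at room temperature.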
Sfp PPTase inh: inhibitors of Bacillus subtilis Sfp phosphopantetheinyl transferase. Q9F4F7. Biochemical Sfp PPTase activity, qHTS. Potency, µM, inactives show max response, negative = inhibition, hits mostly inhibitors. 310,000 tested, 3.5% active. AID 1490; active = well fitted inhibition curve with a large enough effect; inconclusive = small, poorly fitted or top-dose-only effect, or another doubt; inactive = no such curve, though single readings can be large or run the other way;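 note: the enzyme is Sfp with the accession as filed and its product quenches rhodamine fluorescence; potency is the fitted concentration of half-maximal effect; 0% = enzyme reaction without inhibitor and -100% = no enzyme wells; top concentration of the series not given in the record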
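Buffer: 50 mM Hepes-Na pH 7.6, 10 mM MgCl2, 0.01% Nonidet P-40, 0.01% BSA. Enzyme 15 nM, pre-exposed to compound 15 min; substrates then added and fluorescence change tracked over 30 min.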
TRPV1 potentiator: potentiators of human vanilloid receptor 1 (TRPV1) | TRPV1-expressing cells, Fluo-8 calcium influx, capsaicin EC20 potentiation; host cell line not named in the record; control for the full effect not named in the record | 320,000 tested, 0.02% active | potentiation, % at 8.33 µM | Q8NER1; active means potentiation above 80%; inconclusive means 30% to 80%; inactive means below 30%; note: 0% is about no effect
Target sequence (Q8NER1 whole entry, looked up): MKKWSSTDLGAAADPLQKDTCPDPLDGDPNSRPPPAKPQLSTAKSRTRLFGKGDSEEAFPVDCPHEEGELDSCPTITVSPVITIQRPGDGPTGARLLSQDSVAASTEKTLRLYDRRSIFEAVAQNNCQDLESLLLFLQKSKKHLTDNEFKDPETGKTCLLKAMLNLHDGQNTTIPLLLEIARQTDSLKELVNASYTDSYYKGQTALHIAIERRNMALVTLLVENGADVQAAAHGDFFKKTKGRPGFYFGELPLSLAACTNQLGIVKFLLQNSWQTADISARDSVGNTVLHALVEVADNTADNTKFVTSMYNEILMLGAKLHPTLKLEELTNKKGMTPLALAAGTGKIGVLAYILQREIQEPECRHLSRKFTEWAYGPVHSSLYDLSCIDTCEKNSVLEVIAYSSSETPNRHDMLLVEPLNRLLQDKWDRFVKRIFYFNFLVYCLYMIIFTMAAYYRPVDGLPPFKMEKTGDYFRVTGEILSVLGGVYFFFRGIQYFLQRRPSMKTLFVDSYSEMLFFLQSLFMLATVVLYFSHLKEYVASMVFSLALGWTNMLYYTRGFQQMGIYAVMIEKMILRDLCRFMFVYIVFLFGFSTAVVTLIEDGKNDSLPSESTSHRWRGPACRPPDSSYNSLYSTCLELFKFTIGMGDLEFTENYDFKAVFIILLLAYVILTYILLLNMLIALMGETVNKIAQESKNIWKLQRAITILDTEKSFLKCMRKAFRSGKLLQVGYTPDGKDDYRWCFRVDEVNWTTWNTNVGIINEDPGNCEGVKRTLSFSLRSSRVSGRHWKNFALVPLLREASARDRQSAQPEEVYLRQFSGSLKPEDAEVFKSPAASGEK
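Cells expressing TRPV1 were dye-loaded with Fluo-8 and read kinetically: 10 s baseline, 3 min after compound (agonist portion), then 2 min after EC20 capsaicin (allosteric enhancer portion). Calcium-bound dye fluorescence at 480/520 nm.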
ClpP mod: qHTS Assay for Activators of ClpP; purified B. subtilis ClpP, FRET peptide cleavage, 20 min; ATP-dependent Clp protease proteolytic subunit (Bacillus subtilis (strain 168)), P80244; AID 651965, 2013; 340,000 tested, 1.9% active; Potency, µM (titrated, usually from 57.5 µM), for inactives: top-dose activity change, negative = active; active = well fitted falling curve with a large enough effect; inconclusive = small, poorly fitted or top-dose-only effect; inactive = no such curve, though single readings can be large or run the other way; note: potency is the fitted concentration of half-maximal effect; the source files actives as falling curves though it sought activators and does not explain the sign; nearly all actives have a fitted effect of over 65% in size; many hits overshoot -100%
Target sequence (P80244 whole entry, looked up): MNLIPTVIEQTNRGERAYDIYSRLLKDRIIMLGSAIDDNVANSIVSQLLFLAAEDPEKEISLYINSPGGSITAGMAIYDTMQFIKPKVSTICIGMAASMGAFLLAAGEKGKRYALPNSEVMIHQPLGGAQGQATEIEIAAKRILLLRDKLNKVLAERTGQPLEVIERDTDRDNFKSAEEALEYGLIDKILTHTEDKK
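FRET quenching reversal measured ClpP activation: 10 microg/mL B. subtilis ClpP at pH 8 with the FRET-FV decapeptide, read at 430 nm after 320 nm excitation. The 20-min minus 0-min signal was scaled between DMSO/no-enzyme wells and ADEP (5.8 microM final).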
CtBP-E1A inh: CtBP/E1A binding inhibition | AlphaScreen GST-E1A/His-CtBP binding, 1536-well; stronger effect = lower value; control for the full effect not named in the record | activity change, % (no concentration beside the values) | 340,000 tested, 0.49% active | AID 651724; in the data active means activity change below about -65%; inconclusive means about -30% to -65%; inactive means above about -30%; note: % is set by controls: 0 for no effect and ±100 for the full control effect; compound concentration not given in the record
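Protein mix (5X: 125 nM each GST-E1A, His-CtBP) was incubated with pinned compound 2 h at 37 deg C in dark, in 50 mM Tris pH 8.0 buffer with 300 mM NaCl. Glutathione donor and nickel acceptor beads followed; AlphaScreen signal read after 1 h.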
* = called active by the depositor; ? = inconclusive; . = no result given; & = joins results of further samples; [ ] = another dose, or the depositor's remark.

| compound | gsp antagonist | Menin-MLL FL inh | gsp agonist | Sfp PPTase inh | TRPV1 potentiator | ClpP mod | CtBP-E1A inh |
| --- | --- | --- | --- | --- | --- | --- | --- |
| CC(C)c1nc(C#N)c(NN)o1 | -7% | -0.6 | -2% | -15% | -5 | 0.5% | . |
| Cn1c(=O)n(C)c2cc(NS(=O)(=O)c3cccs3)ccc21 | 0% | -0.6 | -19% | 15% | 2 | . | 3 |
| CCc1ccccc1NC(=O)c1ccoc1C | 8% | 3.1 | 0% | 11% | 5 | 0.4% | -1 |
| COc1ccc(CNC(NC(=O)c2ccccc2)(C(F)(F)F)C(F)(F)F)cc1 | 1% | -4.6 | 3% | 17% | -3 | 3.0% | -4 |
| O=C(CCc1ccc(S(=O)(=O)N2CCCCC2)cc1)c1nnc(-c2ccccc2)o1 | -7% | 0.4 | -18% | -15% | -4 | -1.1% | -1 |
| CCOc1cc(C2C3=C(CCCC3=O)NC3=C2C(=O)CCC3)cc(Cl)c1O | 6% | -1.3 | ? | ? | -19 | -2.7% | 5 |
| O=C(CCOc1ccccc1)N1CCN(c2ccc(O)cc2)CC1 | -4% | 1.2 | 7%[15.4 µM] | 50µM* | -4 | . | 3 |
| Cc1ccc(N=CC2=C(O)CC(c3ccccc3Cl)CC2=O)cc1 (centres undefined) | 2% | 4.4 | -37%[inhibitor] | ? | -9 | -1.8% | . |
| CC(=O)Oc1ccc(/C=N/NC(=O)C2CCCN2S(=O)(=O)c2ccc(Cl)cc2)cc1 (centres undefined) | -12% | -0.8 | 9% | -3% | 0 | 1.4% | -8 |
| Cc1nc([N+](=O)[O-])c(N2CCN(Cc3ccccc3)CC2)n1Cc1ccccc1 | -8% | 0.3 | 3% | 17% | 7 | -2.0% | -9 |
| C=CCNC(=S)NNC(=O)c1cccn(Cc2ccc(Cl)cc2Cl)c1=O | -1% | 1.4 | 26% | 6% | -8 | 100% | -19 |
| COc1ccc(CCNC(=O)COC(=O)c2cnc(C)cn2)cc1OC | 2% | 6.0 | 15% | 1% | -14 | 1.2% | 6 |
| Cc1cccc(NC(=O)Cn2c(O)c(N=NC(=O)c3ccccc3O)c3ccccc32)c1 | 4% | 5.2 | -1%[15.4 µM] | ? | -6 | 0.7% | 2 |
| COc1ccc(C(=O)N2CCN(c3ccccn3)CC2)cc1 | 1% | -1.6 | ? | 21% | 1 | -18% | -5 |
| Cc1ccc(S(=O)(=O)NCC(=O)OCC(=O)N2CC(=O)Nc3ccccc32)cc1 | 4% | . | -7%[15.4 µM] | . | . | -1.6% | 9 |
| COc1cc(OC)nc(NC(=O)CSc2nnc(-c3ccccc3)n2C2CCCCC2)n1 | -11% | . | 0% | . | . | -2.2% | -3 |
| Cc1cccc2c(=O)n(C(=O)c3ccccc3)c(N)nc12 | . | . | 26% | . | . | 3.6% | 3 |
| COc1ccc(OC)c(S(=O)(=O)N(C(C)=O)c2ccc3oc(=O)sc3c2)c1 | 9% | 4.7 | -17% | 45µM* | -8 | . | 0 |
| CCCCc1c(O)nc(SCC(=O)Nc2ccc3c(c2)CCC3)[nH]c1=O | -16% | 4.5 | ? | 0% | 8 | -1.9% | -2 |
| Cc1nc(SCC(=O)N2CCN(c3ccccn3)CC2)c(C#N)c(C)c1C | -11% | . | ? | . | . | -12% | -3 |
| COc1ccc(SC[C@H](Cc2ccccc2)N2CC[C@@H](O)CCC2=O)cc1 | 2% | . | -7% | . | -25 | 0.3%&-0.6% | 5 |
| CCN(CC(=O)N1CCC(C(N)=O)CC1)S(=O)(=O)c1ccc(Cl)cc1 | 2% | . | -19% | 8% | 20 | 1.3% | 9 |
| Cc1cc(C(=O)NCCN2CCN(c3cccc(Cl)c3)CC2)n(-c2ccccc2)n1 | 8% | 1.0 | -26% | -17% | -1 | 0.2% | -1 |
| COc1cc2c(cc1OC)-c1cc(Nc3ccccc3Br)nc(=O)n1CC2 | 5% | 13 | -32%[inhibitor][15.4 µM] | 1% | ? | . | ? |
| S=c1[nH]nc(-c2ccco2)n1-c1ccc(Cl)cc1 | 3% | -2.1 | ? | -15% | -2 | . | -24 |
| COc1ccc(-c2nnc(SCc3cc(C)ccc3C)n2N)cc1 | -1% | 2.8 | -23% | 3% | 17 | 3.1% | 0 |
| C=C1[C@H](C)CN(S(=O)(=O)C(C)(C)C)[C@H]1CCO | 8% | . | . | . | . | -5.8% | -16 |
| CC(=O)NC(=O)NC1OC(=O)C(Cl)=C1Cl (centres undefined) | 14% | 1.1 | -27% | -20% | 8 | -1.0% | -15 |
| CCc1ccc(C(=O)NNc2ccccc2F)cc1 | 5% | 0.1 | ? | -1% | . | . | 4 |
| O=C(COc1ccc2ccc(=O)oc2c1)N1CCN(c2ccc(F)cc2)CC1 | -5% | . | -25% | 7% | 4 | . | -1 |

Record cards, from the list above. Order of screens: gsp antagonist	Menin-MLL FL inh	gsp agonist	Sfp PPTase inh	TRPV1 potentiator	ClpP mod	CtBP-E1A inh
Listed for CCOc1cc(C2C3=C(CCCC3=O)NC3=C2C(=O)CCC3)cc(Cl)c1O : 6%	-1.3	?	?	-19	-2.7%	5
Listed for COc1ccc(SC[C@H](Cc2ccccc2)N2CC[C@@H](O)CCC2=O)cc1 : 2%	.	-7%	.	-25	0.3%&-0.6%	5
Listed for C=C1[C@H](C)CN(S(=O)(=O)C(C)(C)C)[C@H]1CCO : 8%	.	.	.	.	-5.8%	-16

The results go on:
| compound | gsp antagonist | Menin-MLL FL inh | gsp agonist | Sfp PPTase inh | TRPV1 potentiator | ClpP mod | CtBP-E1A inh |
| --- | --- | --- | --- | --- | --- | --- | --- |
| O=C(NCCC1=CCCCC1)c1cccc2c1C(=O)N(C1CCCCC1)C2 | -9% | 0.1 | ? | -4% | -19 | -3.2% | -3 |
| O=C(/C=C/c1ccc(Cl)c([N+](=O)[O-])c1)Nc1ccc(N2CCCC2)cc1 | -14% | 0.7 | -1% | -21% | 1 | -0.8% | . |
| O=c1c2ccccc2oc2nc(-c3ccco3)n(CCc3ccccc3)c(=O)c12 | . | -0.7 | . | 9% | -4 | . | . |
| Cc1cc(C)nc(NC(=O)c2csnn2)c1 | -5% | 0.9 | -19% | 13% | 1 | . | -1 |
| CC(=O)Nc1cc2c3c(c1)CCC(=O)N3CCC2 | 5% | -4.4 | 11% | 19% | -16 | -0.5% | 5 |
| c1cncc(Nc2nc(-c3cccs3)cs2)c1 | -10% | 5.0 | 7% | 5µM* | -15 | -7.4% | 3 |
| Cc1cc(C)cc(C(=O)NC(CC(N)=O)c2ccc(N3CCN(c4ccccn4)CC3)c([N+](=O)[O-])c2)c1 (centres undefined) | -4% | -0.1 | . | 10% | 11 | 0.7% | 5 |
| N/C(=N\OC(=O)c1ccc(F)cc1)c1ccc(Br)cc1 | 0% | 0.5 | -22% | 27% | 1 | . | -1 |
| O=C(O)/C=C/c1coc2ccc(F)cc2c1=O | 4% | . | 29% | 0% | -3 | -14% | 4 |
| COc1cc(/C=N/NC(=S)NCCc2ccccc2)cc(OC)c1OC | 5% | -0.4 | -2%[15.4 µM] | 1% | 9 | . | -21 |
| C/C=C(\C)C(=O)Nc1cccc(C2=NOC3(C2)C[C@@H](C(N)=O)N(C(=O)c2cc([N+](=O)[O-])cc([N+](=O)[O-])c2C)C3)c1 (some centres undefined) | 2% | 1.3 | . | 8% | -22 | 1.9% | -4 |
| CCCn1c(SCC(=O)NCc2ccccc2Cl)n[nH]c1=O | 6% | 5.0 | 24% | 4% | 5 | 1.0% | 14 |
| CCC1CCCCN1C(=O)Cn1c(=O)n(CCCC(=O)NCc2ccco2)c(=O)c2sccc21 (centres undefined) | -29% | 1.4 | 19%[15.4 µM] | 4% | -1 | -0.1% | 21 |
| O=c1oc2ccccc2cc1N1CCOCC1 | -8% | . | -7%[15.4 µM] | -15% | 22 | . | 0 |
| CCC(C(=O)NCc1ccc(F)cc1)N(Cc1cccs1)C(=O)c1snc(C(N)=O)c1N (centres undefined) | -14% | 0.1 | 3%[15.4 µM] | 5% | 5 | . | 0 |
| C[C@H](O)[C@@H]1C(=O)N2CCc3ccc(N4CCN(C)CC4)cc3[C@@H]2C[C@@H]1N(C)C(=O)c1ccc(C#N)cc1 | 7% | . | . | . | . | 0.4% | 3 |
| CCCn1c(=O)c(C(=O)NCCc2ccc(OC)c(OC)c2)c(O)c2ccccc21 | -15% | 1.7 | 5% | ? | ? | ? | -8 |
| O=[N+]([O-])c1cc(S(=O)(=O)N2CCOCC2)ccc1OCc1ccccc1C(F)(F)F | 6% | . | -4%[15.4 µM] | . | -25 | -0.2% | -1 |
| CCC1=C(c2ccc(C)cc2)S(=O)(=O)N=C1N1CCC(C(=O)NCCCN2CCCCC2C)CC1 (centres undefined) | 6% | -0.3 | -21% | 16% | 4 | -1.5% | . |
| CCC(=O)N/C(=N/c1nc(C)cc(C)n1)Nc1cccc(OC)c1 | -17% | 0.7 | 2% | 11% | -11 | -0.6% | 9 |
| CCC(C)(C)n1nnnc1C(c1ccc(O)c(OC)c1)N1CCc2ccccc2C1 (centres undefined) | 0% | -1.2 | -51%[inhibitor] | 3.5µM* | -19 | -0.1% | 5 |
| O=C(COc1ccccc1Cc1ccccc1)Nc1cccc(S(=O)(=O)N2CCOCC2)c1 | -5% | . | -5% | . | 20 | -29% | 1 |
| COc1cc(/C=C2\N=C(c3c(-c4ccccc4)noc3C)OC2=O)ccc1OC(C)=O | 5% | 3.9 | 20% | 13% | 3 | . | 6 |
| CC(=O)Nc1ccc(NC(=O)c2ccc(S(=O)(=O)N3CCCCCC3)cc2)cc1 | . | . | -89%[inhibitor] | . | . | 2.2% | 2 |
| CCCN(CC(=O)Nc1ccccc1OC)C(=O)c1ccncc1 | 2% | -1.0 | -1% | 16% | -6 | . | -20 |
| CCOc1ccccc1NC(=O)Nc1ccc(CC#N)cc1 | 6% | 2.3 | -21% | 3% | -6 | -2.4% | . |
